# NS1 inh: qHTS Assay for Inhibitors of Influenza NS1 Protein Function | 0.4% of 270,000 active | S. cerevisiae slowed by influenza A NS1, growth recovery by OD600 | Potency, µM (highest dose often 46.1 µM), for inactives: top-dose activity, positive = more growth | AID 2326, 2010; active means well fitted rising curve with a large enough effect; inconclusive means small, poorly fitted or top-dose-only effect; inactive means no such curve, though single readings can be large or run the other way; note: nearly all actives have a fitted effect of over 50% in size
#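 A cell-based growth assay was used: compounds that relieve NS1-induced slow growth of budding yeast raise OD600. Assay medium was yeast nitrogen base with ammonium sulphate and -URA supplement, pH 6.0, with 2% galactose.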
# RE007 growth inh: qHTS Assay for Inhibitors of the HIV-1 protein Vpr | AID 651644, 2012 | Potency, µM (highest dose often 92.2 µM), for inactives: at the top dose activity change, negative = less growth | 0.21% of 360,000 active | S. pombe RE007 Vpr strain, BacTiter-Glo ATP luminescence, 24 h; control for the full effect not named in the record; active = well fitted falling curve with a large enough effect; inconclusive = small, poorly fitted or top-dose-only effect; inactive = no such curve, though single readings can be large or run the other way;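 note: % is set by controls: 0 for no effect and ±100 for the full control effect; nearly all actives have a fitted effect of over 50% in size; the assay follows cell death caused by Vpr and the record does not say whether a fall means rescue or toxicity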
#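 Fission yeast strain RE007, carrying one chromosomally integrated HIV-1 vpr copy, was seeded at OD 0.01 in PMG+AL medium with 23 nL pinned compound. After 24 h at 30 °C and 99% humidity, viability was read by BacTiter-Glo luminescence.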
# SARS PLpro yeast: qHTS of Yeast-based Assay for SARS-CoV PLP | S. cerevisiae expressing SARS-CoV PLpro, growth rescue; control for the full effect not named in the record | Potency, µM (series often up to 32.9 µM), without a hit: at the highest dose activity, positive = growth rescue | 0.19% of 330,000 active | AID 485353, 2010; active means well fitted rising curve with a large enough effect; inconclusive means small, poorly fitted or top-dose-only effect; inactive means no such curve, though single readings can be large or run the other way; note: 0% is about no effect; nearly all actives have a fitted effect of over 55% in size; growth read by luminescence after 48 h
# Cruzain inh noDet: qHTS Assay for Promiscuous and Specific Inhibitors of Cruzain (without detergent); Cruzipain (Trypanosoma cruzi), P25779; purified cruzain, Z-FR-AMC fluorescence, no detergent; Potency, µM, for inactives: max response, negative = inhibition, usual class: inhibitors; 2.3% of 200,000 active;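 note: plate controls were enzyme without inhibitor for no effect and buffer without enzyme for full effect; nearly all actives have a fitted effect of over 40% in size; top concentration of the series not given in the record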
# Target sequence (P25779 123-467 limits assumed): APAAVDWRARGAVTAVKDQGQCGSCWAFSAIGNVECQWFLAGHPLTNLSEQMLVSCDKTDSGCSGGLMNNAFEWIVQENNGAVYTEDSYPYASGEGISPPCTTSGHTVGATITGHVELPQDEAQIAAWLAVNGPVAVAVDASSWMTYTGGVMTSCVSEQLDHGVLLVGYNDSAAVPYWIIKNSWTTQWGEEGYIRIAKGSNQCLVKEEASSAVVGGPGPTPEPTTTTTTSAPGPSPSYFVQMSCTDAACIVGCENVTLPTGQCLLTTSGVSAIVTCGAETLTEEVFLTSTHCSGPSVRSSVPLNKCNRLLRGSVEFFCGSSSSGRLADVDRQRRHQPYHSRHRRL
#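 Detergent-free condition (0.00005% Triton X-100) in acetate buffer pH 5.5 with DTT. 1.5 nM enzyme and compound were pre-mixed 15 min, then 2 uM Z-FR-AMC substrate added; reaction progress from fluorescence change between first and third reads (60 s).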
# MARV entry inh: qHTS for inhibitors of binding or entry into cells for Marburg Virus. Marburg virus pseudotyped entry inhibition, cell reporter; control for the full effect not named in the record; about a third of the inactives were read at about 46 µM. Potency, µM (series often up to 37.8 µM), inactives show at the highest dose activity change, negative = inhibition, most hits filed as inhibitors. 1.8% of 300,000 active. AID 540276, 2011; active = well fitted inhibition curve with a large enough effect; inconclusive = small, poorly fitted or top-dose-only effect, or effect the other way; inactive = flat fitted curve, though single readings scatter; tested in HEK293 cells; about a fifth of its hits are not listed in these tables; note: % is set by controls: 0 for no effect and ±100 for the full control effect; luciferase read-out
# 2A StopGo: High Throughput Screening for Foot and Mouth Disease Virus Antivirals | human cells with a luciferase reporter of 2A StopGo recoding; control for the full effect not named in the record | Potency, µM (top dose mostly 57.9 µM), for inactives: at the highest dose signal change, negative = less light | 1.2% of 410,000 active | AID 1159524, 2015; active = well fitted falling curve with a large enough effect; inconclusive = small, poorly fitted or top-dose-only effect; inactive = no such curve, though single readings can be large or run the other way; tested in HEK293T cells; note: % is set by controls: 0 for no effect and ±100 for the full control effect; nearly all actives have a fitted effect of over 45% in size; luciferase light after 4 h
# Cruzain inh Det: qHTS Assay for Promiscuous and Specific Inhibitors of Cruzain (with detergent) | Cruzipain (Trypanosoma cruzi), P25779 | Potency, µM, for the others: max response, negative = inhibition, usual class: inhibitors | 0.43% of 200,000 active | AID 1478, 2009 | purified cruzain, Z-FR-AMC fluorescence, 0.01% Triton;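 note: plate controls were neutral wells for no effect and buffer without enzyme for full effect; nearly all actives have a fitted effect of over 40% in size; top concentration of the series not given in the record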
#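 Sodium acetate buffer (100 mM, pH 5.5) containing 5 mM DTT and 0.01% Triton X-100 hosted 1.5 nM cruzain and test compound for 15 min at room temperature. Cleavage of 2 uM Z-FR-AMC was then tracked by fluorescence.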
# Lassa entry inh: qHTS for Inhibitors of binding or entry into cells for Lassa Virus; Potency, µM (highest dose often 37.9 µM), for inactives: at the highest dose activity change, negative = inhibition, hits mostly inhibitors; 1.2% of 300,000 active; Lassa virus pseudotype entry inhibition, cell reporter; control for the full effect not named in the record; AID 540256, 2011; active means well fitted inhibition curve with a large enough effect; inconclusive means small, poorly fitted or top-dose-only effect, or effect the other way; inactive means flat fitted curve, though single readings scatter; tested in HEK293 cells; note: % is set by controls: 0 for no effect and ±100 for the full control effect; nearly all actives have a fitted effect of over 50% in size; luciferase read-out
# Numbers without * were called inactive; ? = inconclusive; . = no result given; & = joins results of further samples; [ ] = dose if it differs, or a comment. Unless noted, calls come from the whole dose curve; as a rule, active = well fitted curve in the direction sought with a large enough effect; inconclusive = small, poorly fitted or top-dose-only effect, or another doubt; inactive = no such curve, though single readings can be large; an effect the other way counts as inactive or inconclusive. Potency is the fitted concentration of half-maximal effect.
SMILES,NS1 inh,RE007 growth inh,SARS PLpro yeast,Cruzain inh noDet,MARV entry inh,2A StopGo,Cruzain inh Det,Lassa entry inh
COc1cc(OC)c(C2N(c3ccc(Cl)c(Cl)c3)C(=O)C3CCCN32)cc1OC (stereo unspecified),-18%,?,-3%,?,?,9%,-2.2%,14%
COc1ccc(C)cc1NC(=O)c1ccc2c(c1)N(Cc1cccc(Cl)c1)C(=O)c1ccccc1S2=O (stereo unspecified),.,.,.,-2%,.,-17%,-1.0%,4%[46.1 µM]
N#CCCN1CCN(Cn2c3ccccc3c3ccccc32)CC1,-29%,-22%,1%,-11%,-7%,-8%,-3.6%,-22%
Cc1ccc(-n2nc3c(=O)n(CC(=O)NCCc4ccco4)nc(C)c3c2C)cc1,2%,-7%,6%,.,.,0%,.,.
COCCNC(=O)NC(=O)COC(=O)Cc1ccc2c(c1)OCCO2,-1%,-5%,-2%,2%,4%,-23%,1.4%,1%
COc1ccc(Oc2ccc(N/C=C3\CCCC3=O)cc2)cc1,8%,2%,-13%,1%,2%,-14%,-3.3%,-7%
O=C(Nc1ccc(F)c(Cl)c1)C1CCCN1S(=O)(=O)c1ccc(F)cc1 (stereo unspecified),.,.,.,-18%,-12%[46.1 µM],?,-4.4%,0%[46.1 µM]
COc1c(O)cc2oc(-c3ccc(O)c(O)c3)cc(=O)c2c1O,-13%,-18%,4%,.,.,49%[activator],.,.
COc1ccc(S(=O)(=O)N2CCOCC2)cc1N(C)S(=O)(=O)c1ccc(C)cc1,-13%,-13%,-3%,.,-18%,-15%,.,-14%
CC(=O)c1ccc(NC(=S)NCCCN2CCOCC2)cc1,1%,0%,-1%,.,.,11%,.,.
CCOC(=O)Cn1cc(C#N)c2ccccc21,-3%,-22%,-1%,.,11%,-1%,.,10%
CC(CNC(=O)c1cc(COc2c(F)cccc2F)on1)Oc1cccnc1 (stereo unspecified),-36%,-1%,-3%,.,.,?,.,.
COc1ccc(CNC(=O)CN(Cc2ccco2)C(=O)CNS(=O)(=O)c2ccc(F)cc2)cc1,0%,-5%,2%,.,-2%[46.1 µM],14%,.,-21%
Cc1noc(C)c1COc1cccc(C(=O)OC(C)C#N)c1 (stereo unspecified),.,12%,-3%,.,-9%[46.1 µM],10%,.,-14%
Cc1[nH]c2ccccc2c1C(=O)COC(=O)C1CC(=O)N(Cc2ccccc2)C1 (stereo unspecified),-3%,-8%,2%,?,5%,-18%,1.7%,-17%
Cc1cc(C(=O)OCC(=O)N2CC(=O)Nc3ccccc32)c(C)n1-c1ccccc1,-18%,.,11%,2%,?,0%,-8.1%,?
C=CCn1c(SCC(=O)Nc2nnc(CC)s2)nnc1-c1cccnc1,2%,-16%,4%,-10%,22%,11%,2.4%,7%
CCN(CC)c1ccc(N=C2C=CC(=O)C=C2NC(C)=O)cc1,.,-28%,.,.,?,48%[activator],.,8%
CC(=O)c1ccc(OCC(O)CN2CCc3ccccc3C2)cc1 (stereo unspecified),3%,-11%,1%,.,4%[46.1 µM],-8%,.,6%
Cc1ccc(CSCCNC(=O)c2cccc([N+](=O)[O-])c2)cc1,-36%,2%,-26%,11%,?,-29%,-2.8%,-5%
Nc1nc(SCc2ccc(Br)cc2)n[nH]1,2%,7%,-1%,.,13%[46.1 µM],13%,.,-12%[46.1 µM]
CCn1cc(C(=O)OCC(=O)Nc2ccc(S(=O)(=O)N3CCCC3)cc2)c(=O)c2ccc(C)nc21,-4%,-18%,-4%,?,-21%&-21%,-23%,1.7%,17%
COc1cc(C)c(S(=O)(=O)NCc2ccc3c(c2)OCO3)cc1C,-64%,-4%,-2%,0%,.,26%,2.2%,.
CCn1c(SCC(=O)N2CCC(C)CC2)nnc1-c1ccccc1O,.,.,.,9%,.,-3%,0.9%,14%[46.1 µM]
CCc1cccc(C)c1NC(=O)CSc1nnc(N)s1,.,.,.,-1%,.,31%[activator],0.1%,-17%[46.1 µM]
Cc1[nH]c(=O)c(C#N)c(C)c1Br,4%,-2%,1%,-8%,1%,.,-0.7%,0%
CCCN1CCC(=O)N([C@H](CSc2ccc(C)cc2)c2ccccc2)CC1,-6%,-16%,0%,.,.,32%[activator],.,.
COc1cccc2cc(C(=O)OC(C)C(=O)c3ccc(C)cc3)c(=O)oc12 (stereo unspecified),-10%,16%,-5%,.,?,-6%,.,-27%[46.1 µM]
CC1Sc2ccc(C(=O)Nc3ncccc3O)cc2NC1=O (stereo unspecified),.,-7%,0%,.,10µM*,-7%,.,?
COc1ccc(N2CCN(C(=O)c3oc4ccccc4c3NC(=O)Cc3ccc(OC)c(OC)c3)CC2)cc1,8%,13%,-4%,.,.,?,.,?
CN(C)CCCN(C(=O)c1ccc(S(=O)(=O)N2CCc3ccccc3C2)cc1)c1nc2c(F)cccc2s1,9%,-6%,-3%,.,-30%[46.1 µM],-16%,.,-11%[46.1 µM]
O=c1cc[nH]c2ccc([N+](=O)[O-])cc12,.,-12%,0%,.,22%,17%,.,12%
Cc1ccc(NC(=O)C(C)OC(=O)Cn2[nH]c(=O)c3ccccc3c2=O)cc1 (stereo unspecified),.,4%,1%,.,2%,-7%,.,?
CCN(c1ccccc1)S(=O)(=O)c1cc2c(cc1C)N(C)CCO2,17%,8%,-1%,.,.,-5%,.,.
CCCCn1c(N)c(N(CCOC)C(=O)c2ccco2)c(=O)[nH]c1=O,.,-18%,-2%,.,15%,-24%,.,6%
O=C(O)C(Cc1ccccc1)N1C(=O)/C(=C/C=C/c2ccco2)SC1=S (stereo unspecified),12%,-9%,-2%,.,13%[46.1 µM],-15%,.,-14%
O=C(Nc1nnc(CC(=O)N2CCOCC2)s1)c1cccs1,-3%,-1%,-6%,-11%,8%,-10%,-0.2%,19%
C[C@@H]1CN(Cc2cn(C)nc2-c2cccc(Cl)c2)C[C@H](C)O1,10%,-21%,1%,.,2%[46.1 µM],-15%,.,3%
CC(NC(=O)C1CCN(S(=O)(=O)N2CCC3(CC2)OCCO3)CC1)c1ccccc1 (stereo unspecified),.,-6%,-5%,.,10%,-13%,.,12%
CCOc1ccc(/C(O)=C/C(=O)C(=O)Nc2ccc(S(=O)(=O)NC(C)=O)cc2)cc1,-6%,13%,-13%,-5%,?,-6%,-3.3%,-20%
COc1cc(NC(=O)NS(=O)(=O)c2ccc(C)cc2)cc(OC)c1,1µM*,15%,9%,-1%,7%,-17%,9.4%,11%
CCn1c(=S)sc2c(=O)n(CC(=O)NCCCc3ccccc3)c(C)nc21,8%,13%,1%,.,6%[46.1 µM],-11%,.,-3%[46.1 µM]
C=CCOc1ccc(Br)cc1CNCC,.,-16%,0%,.,-27%[46.1 µM],-8%,.,-9%[46.1 µM]
COc1ccc(/C=N/Nc2nc(-c3cccnc3)nc3ccccc23)c(OC)c1,-2%,-13%,1%,.,-5%,-8%,.,-15%
OC1CCN(Cc2ccc(OCc3ccccc3)cc2)CC1,-2%,-6%,6%,.,?,-16%,.,7%[46.1 µM]
COc1cccc(-c2c(C(=O)N/N=C/c3cccs3)nnn2-c2nonc2N)c1,-12%,-4%,-12%,.,.,-7%,.,.
CCOC(=O)c1cc(CC)sc1NC(=O)c1cccc(N2C(=O)CCC2=O)c1,-31%,-16%,?,?,12%,-9%,-14%,4%
O=c1c2[nH]c3ccc(Br)cc3c2ncn1Cc1ccncc1,2%,2%,0%,.,16%[46.1 µM],-27%,.,13%
CCOc1ccccc1N(CC(=O)NC(C)(C)C)C(=O)Cn1nnc(-c2ccc(C)o2)n1,3%,-12%,4%,14%,-17%,-15%,-1.4%,1%
O=C(CCl)Nc1ccc(Sc2ccc(NC(=O)CCl)cc2)cc1,1%,14%,6%,.,?,7.9µM*,.,?

# Continued.
SMILES,NS1 inh,RE007 growth inh,SARS PLpro yeast,Cruzain inh noDet,MARV entry inh,2A StopGo,Cruzain inh Det,Lassa entry inh
CCOc1ccc(C2C(C(=O)c3cccs3)=C(O)C(=O)N2Cc2cccnc2)cc1 (stereo unspecified),.,3%,-3%,.,4%,65%[activator],.,-8%
COc1cccc(-n2c(=O)c3sc4ccccc4c3n(CC(=O)Nc3cccc(Cl)c3)c2=O)c1,.,.,.,-28%,12%[46.1 µM],-5%,-3.9%,-4%[46.1 µM]
Cc1cccc(N(CC(=O)NC2CCCC2)C(=O)CCC(=O)Nc2ccccn2)c1,3%,?,1%,.,-25%[46.1 µM],-3%,.,.
O=C(NCCCn1ccnc1)C1CCCN(S(=O)(=O)c2cc(Cl)ccc2Cl)C1 (stereo unspecified),-2%,?,-10%,.,-43%[46.1 µM],?,.,-1%
CC(C)c1ccc(CNC(=O)C(=O)NCCCn2ccnc2)cc1,.,-7%,1%,.,12%[46.1 µM],-12%,.,.
Cc1cccc(NC(=O)/C=C/c2cccs2)n1,-5%,?,-4%,-11%,?,15%,0.9%,?
CCCCOc1ccc(Cn2c(=O)sc3ccccc32)cc1OC,.,.,.,-5%,10%[46.1 µM],3%,-7.9%,-21%[46.1 µM]
CC1CCN(C(=O)CN2C(=O)COc3ccc(Cl)cc32)CC1,1%,0%,-2%,.,-14%[46.1 µM],-6%,.,-13%[46.1 µM]
O=c1[nH]cnc2scc(-c3ccc(Br)cc3)c12,.,6%,-1%,.,-27%[46.1 µM],-4%,.,0%[46.1 µM]
CCCCN1C2=NC(c3ccccc3)CN2c2ccccc21 (stereo unspecified),.,-28%,.,.,?,-10%,.,-11%
O=C(NC1CCCCC1)C12CC3CC(C1)CC(n1cncn1)(C3)C2,4%,14%,-4%,5%,?,-10%,3.4%,-24%
CC1=C(C(N)=O)C(c2ccc(C(C)C)cc2)n2nc(SCc3ccccc3F)nc2N1 (stereo unspecified),.,.,.,17%,4%[46.1 µM],-20%,0.6%,-6%[46.1 µM]
COc1ccccc1S(=O)(=O)c1ccccc1[N+](=O)[O-],-1%,-9%,9%,4%,-4%,-12%,-1.5%,3%

# Screening data as filed in PubChem BioAssay.

# Random draw from the library. About 4.7% of those tested had a hit in this group.
